# Screens as filed in PubChem BioAssay.
# YopH PTP inh – YopH (Yersinia) phosphatase inhibition | fluorescence Ex485/Em525 | actives 0.16% (n = 140,000) | inhibition, %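 (about 10 µM by stock and volumes)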 | AID 898;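 active means inhibition of 50% or more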;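 further: controls were vehicle for no effect and minimum signal wells for full effect; inactives centre near -20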
# Mtb betalactam – beta-lactam sensitization of Mtb H37Rv | M. tuberculosis H37Rv growth with meropenem, percent inhibition; hits of this screen are not shown here | inhibition, % at 25 µM | actives 0.27% (n = 330,000) | AID 434955;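 active means about 74% or more and at least 40 points above the plate without the antibiotic, then above 30% in a dose series; inconclusive means first-round hits that could not be retested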;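 further: growth measured after seven days incubation then overnight dye step; 0% = bacteria only wells and 100% = bacteria with antibiotic; twin plates without the antibiotic show which effects depend on it; some results filed as inactive read as strong as hits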
# Arbovirus anti – antivirals against arbovirus infection; actives 0.37% (n = 200,000); inhibition, % at 10 µM; arbovirus infection cell-based antiviral screen;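 active means inhibition from about 30%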;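 further: bluetongue infection of BSR cells; cell survival read as ATP light after 72 h; 0% = infected wells without compound and 100% = uninfected wells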
# Mtb growth – M. tuberculosis H37Rv growth inhibitors, H37Rv strain (AID 1626); inhibition, % at 10 µM; hits with a dose series show IC50 in µM; M. tuberculosis H37Rv growth inhibition; higher % means a stronger effect; actives 0.95% (n = 220,000);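 active means confirmed in a dose series; inconclusive means inhibition above 80% but not taken into the dose series; inactive means below 80% or under 30% at every dose of the series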;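 further: bacteria incubated seven days before Alamar blue readout; 0% = bacteria only wells and 100% = bacteria with antibiotic wells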
# RecA splice inh – inhibitors of M. tuberculosis RecA intein splicing; P9WHJ3; cell-free RecA intein splicing, fluorescence; inhibition, %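 (about 9 µM by stock and volumes)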; actives 0.75% (n = 290,000); in the data active means inhibition above about 30%; inconclusive means no clear call, values can overlap the other calls;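 further: 0% = vehicle wells and 100% = reference inhibitor control wells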
# Target sequence (P9WHJ3 whole entry, looked up, canonical isoform): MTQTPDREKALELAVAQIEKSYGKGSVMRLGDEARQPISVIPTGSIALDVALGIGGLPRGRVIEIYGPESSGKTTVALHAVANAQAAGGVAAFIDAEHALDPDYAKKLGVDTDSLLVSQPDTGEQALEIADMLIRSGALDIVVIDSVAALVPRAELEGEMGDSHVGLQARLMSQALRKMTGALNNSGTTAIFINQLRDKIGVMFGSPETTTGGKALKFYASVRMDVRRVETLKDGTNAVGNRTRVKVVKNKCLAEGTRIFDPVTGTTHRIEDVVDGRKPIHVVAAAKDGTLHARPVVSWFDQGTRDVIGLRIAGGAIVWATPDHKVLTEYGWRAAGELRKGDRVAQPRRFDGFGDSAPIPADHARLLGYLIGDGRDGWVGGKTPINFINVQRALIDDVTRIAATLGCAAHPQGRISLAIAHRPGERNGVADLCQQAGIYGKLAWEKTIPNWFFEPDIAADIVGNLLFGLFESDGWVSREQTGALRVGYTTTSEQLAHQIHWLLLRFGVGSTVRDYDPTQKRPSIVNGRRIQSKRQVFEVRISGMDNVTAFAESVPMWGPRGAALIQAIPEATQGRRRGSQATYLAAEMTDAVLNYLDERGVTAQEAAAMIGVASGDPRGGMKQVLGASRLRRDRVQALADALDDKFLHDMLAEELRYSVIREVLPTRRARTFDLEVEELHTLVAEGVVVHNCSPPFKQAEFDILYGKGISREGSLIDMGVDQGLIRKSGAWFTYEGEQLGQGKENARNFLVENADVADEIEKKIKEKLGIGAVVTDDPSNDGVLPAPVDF
# Arbovirus anti repeat – second read-out of Arbovirus anti, no call of its own (marks repeat the call); inhibition, %; measured here: 10K subset replicate screen; many hits read low in the repeat;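 first of two repeat runs on a subset; 0% = infected and 100% = uninfected wells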
# Numbers without * were called inactive; ? = inconclusive; . = not tested or not shown.
SMILES,YopH PTP inh,Mtb betalactam,Arbovirus anti,Mtb growth,RecA splice inh,others
CCC(C)NS(=O)(=O)c1ccc(NC(=O)Cc2ccc(OC)cc2)cc1 (stereo unspecified),.,-1,7,3%,-0.1,
O=C(CNC(=O)c1cccs1)Nc1ncccc1O,.,1,.,.,-1.5,
Oc1ccc(C2=CSC3=NCCN23)cc1O,.,1,.,.,-3.2,
Cc1ccc(S(=O)(=O)NNC(=O)c2sccc2-n2cccc2)cc1,-15,4,3,-6%,-1.5,
CCCOC(=O)C1=C(C)NC(=O)NC1c1cc2c(cc1Br)OCO2 (stereo unspecified),.,-1,.,.,-0.5,
Cc1cc(OCC(=O)Nc2ccccc2N2CCCCC2)ccc1C(C)C,.,3,.,.,-0.9,
COc1ccc(C(c2nnnn2C2CCCCC2)N2CCN(c3ccc(OC)cc3)CC2)cc1 (stereo unspecified),-52,-1,0,4%,0.3,
CCOc1ccc(N2C(=O)/C(=C\c3ccccc3OC)S(=O)(=O)C2c2cccc([N+](=O)[O-])c2)cc1 (stereo unspecified),-46,54,3,77%,0.9,
COc1cccc(C(=O)NNC(=O)c2cccc(F)c2)c1,.,2,.,.,-1.3,
CCc1nnc(NC(=O)CSc2nnc(-c3ccncc3)n2Cc2ccccc2)s1,-40,.,1,0%,0.6,
COc1ccc(OC)c(-c2cc(C(=O)NCCCn3ccnc3)no2)c1,-30,9,3,0%,-0.1,
O=C(COc1ccc(Cl)cc1)NCc1nnc(SCC(=O)NCc2ccc3c(c2)OCO3)o1,-34,-8,-4,5%,-0.1,
Cc1cccc2cc(CN(CCc3ccccc3)C(=O)N3CCOCC3)c3nnnn3c12,-43,-4,-9,4%,0.3,
C=CCn1c(SCC(=O)Nc2ccc(NC(=O)c3ccco3)c(OC)c2)nnc1-c1ccncc1,-40,6,15,7%,1.5,
CCOCCOC(=O)c1[nH]c2c(c1C)C(=O)CC(c1ccccc1)C2 (stereo unspecified),.,4,.,.,1.7,

# The last 5 compounds of the part before open the next one.
SMILES,YopH PTP inh,Mtb betalactam,Arbovirus anti,Mtb growth,RecA splice inh,others
COc1ccc(OC)c(-c2cc(C(=O)NCCCn3ccnc3)no2)c1,-30,9,3,0%,-0.1,
O=C(COc1ccc(Cl)cc1)NCc1nnc(SCC(=O)NCc2ccc3c(c2)OCO3)o1,-34,-8,-4,5%,-0.1,
Cc1cccc2cc(CN(CCc3ccccc3)C(=O)N3CCOCC3)c3nnnn3c12,-43,-4,-9,4%,0.3,
C=CCn1c(SCC(=O)Nc2ccc(NC(=O)c3ccco3)c(OC)c2)nnc1-c1ccncc1,-40,6,15,7%,1.5,
CCOCCOC(=O)c1[nH]c2c(c1C)C(=O)CC(c1ccccc1)C2 (stereo unspecified),.,4,.,.,1.7,
Cc1cc(=O)[nH]c(SCC(=O)Nc2ccc3c(c2)OCCO3)n1,.,-5,1,0%,-1.4,
CCc1ccccc1Nc1nc2ccccc2n1CC,.,4,5,8%,-2.8,
O=C(CSCCO)Nc1cc(C(F)(F)F)ccc1Cl,-18,0,1,0%,1.8,
N#Cc1ccc(S(=O)(=O)NC2CCCCNC2=O)cc1 (stereo unspecified),.,2,.,.,-1.0,
CC(=O)C1=C(C)Nc2ncnn2C1c1ccc(Br)cc1 (stereo unspecified),.,1,.,.,-0.2,
CC12CCC(C(=O)OC3CCCCC3)(OC1=O)C2(C)C (stereo unspecified),.,5,.,.,2.6,
CSCC(C)N1CCC(n2nccc2NC(=O)c2ccccc2C)CC1 (stereo unspecified),.,-15,.,.,-1.1,
O=C(NCCc1ccccc1)C1CCN(S(=O)(=O)N2CCOCC2)CC1,.,4,.,.,1.2,
O=C(Cc1ccc([N+](=O)[O-])cc1)N1CCN=C1SCc1ccccc1,4,2,11,-2%,-0.5,
C=CCC1(C#N)C(=S)NC(C)=C(C(=O)OCC)C1c1ccccc1 (stereo unspecified),.,1,.,6%,6.0,
COc1ccccc1CNC(=O)CN1C(=O)c2ccccc2S1(=O)=O,.,0,.,.,-1.5,
COc1ccc(OCC(=O)Nc2c3c(nn2-c2ccccc2)CS(=O)(=O)C3)cc1,.,7,.,.,-0.8,
COC(=O)c1ccc2c(=O)n(CCCCCC(=O)NCCNC(C)=O)c(=O)[nH]c2c1,.,-6,-4,1%,0.4,
O=Cc1cn(CC(=O)Nc2ccc3c(c2)OCO3)c2ccccc12,.,4,13,9%,1.3,
O=C(c1ccc([N+](=O)[O-])cc1)N1CCc2ccccc2C1,-24,-2,1,-2%,.,

# 7 entries already listed, sorted by SMILES length, lowest first.
SMILES,YopH PTP inh,Mtb betalactam,Arbovirus anti,Mtb growth,RecA splice inh,others
COc1cccc(C(=O)NNC(=O)c2cccc(F)c2)c1,.,2,.,.,-1.3,
COc1ccccc1CNC(=O)CN1C(=O)c2ccccc2S1(=O)=O,.,0,.,.,-1.5,
CCCOC(=O)C1=C(C)NC(=O)NC1c1cc2c(cc1Br)OCO2 (stereo unspecified),.,-1,.,.,-0.5,
CCC(C)NS(=O)(=O)c1ccc(NC(=O)Cc2ccc(OC)cc2)cc1 (stereo unspecified),.,-1,7,3%,-0.1,
COc1ccc(OCC(=O)Nc2c3c(nn2-c2ccccc2)CS(=O)(=O)C3)cc1,.,7,.,.,-0.8,
COC(=O)c1ccc2c(=O)n(CCCCCC(=O)NCCNC(C)=O)c(=O)[nH]c2c1,.,-6,-4,1%,0.4,
CCOc1ccc(N2C(=O)/C(=C\c3ccccc3OC)S(=O)(=O)C2c2cccc([N+](=O)[O-])c2)cc1 (stereo unspecified),-46,54,3,77%,0.9,

# Other entries follow.
SMILES,YopH PTP inh,Mtb betalactam,Arbovirus anti,Mtb growth,RecA splice inh,others
O=C1OCc2ccc(NC(=O)c3ccccc3C(=O)O)cc21,.,?,.,.,4.0,
CC(c1ccccc1)N1C(=O)NC(NC(=O)c2cccnc2)(C(F)(F)F)C1=O (stereo unspecified),-5,-9,3,-10%,0.0,
O=C(CN1CCN(S(=O)(=O)c2cc(Cl)ccc2Cl)CC1)c1ccc(O)c(O)c1,.,7,.,.,-1.0,
Cc1ccc(N2C(=O)C(Cl)=C(N3CCOCC3)C2=O)c(C)c1,.,8,.,.,60*,
O=C(O)c1ccc(CSc2nnc(-c3ccncc3)n2-c2ccc(Cl)cc2)cc1,.,-11,-2,-4%,-0.2,
COc1cccc(C2CC(=O)Nc3c2c(=O)n(C)c(=O)n3C)c1OC (stereo unspecified),4,0,3,1%,-0.6,Arbovirus anti repeat=-1
CCOC(=O)c1cc(-c2cccc([N+](=O)[O-])c2)nc2[nH]c(=O)[nH]c(=O)c12,.,3,-2,8%,2.7,
CCOC(=O)N1CCN(C(=O)CNC2CCCCCCC2)CC1,.,0,-16,-7%,-1.8,
CCn1nnnc1SCC(=O)Nc1nnc(C(C)C)s1,-7,6,-9,3%,0.6,
Cc1ccc(CNC(=O)Cn2cnc3cc([N+](=O)[O-])ccc3c2=O)cc1,.,-1,-2,0%,-4.9,
Cc1noc(C)c1COC(=O)c1ccc(S(=O)(=O)N2CCCCC2)cc1,.,-2,4,5%,-1.5,
Cn1c(CCNC(=O)c2cccs2)nnc1SCC(=O)Nc1nc(-c2ccccc2)cs1,0,6,3,3%,-4.6,
NC(=O)c1ccc(N2CCNC(=O)C2)c([N+](=O)[O-])c1,.,3,.,.,-0.8,
O=C(CCCn1c(SCc2cccc(F)c2)nc2ccccc2c1=O)NCC1CCCO1 (stereo unspecified),.,11,-1,6%,6.9,
Cc1ccccc1NC(=S)N(Cc1ccccc1)Cc1cccs1,.,-1,8,9%,-0.2,
Cc1ccc(-c2csc(NC(=O)C3=NN(C4CCS(=O)(=O)C4)C(=O)CC3)n2)cc1 (stereo unspecified),.,1,.,-4%,-0.6,
CCN(CC(=O)Nc1ccc(NC(C)=O)cc1)C(=O)/C=C/c1cn(-c2ccccc2)nc1-c1cccs1,.,24,.,.,8.0,
Cc1nn(Cc2ccccc2)c2c1C(c1cccnc1)C(C#N)=C(N)O2 (stereo unspecified),-7,-7,-3,-1%,73*,
CCN(CC)S(=O)(=O)c1ccc(N2CCOCC2)c(NC(=O)C(C)(C)C)c1,.,-6,.,-4%,2.2,
c1ccc(C2CCCN(Cc3nc(CC4CC4)no3)CC2)cc1 (stereo unspecified),.,-2,-6,2%,4.2,
CN1Cc2sc(NC(=S)NC(=O)c3ccccc3)c(C#N)c2CC1(C)C,.,19,.,-2%,.,
COc1ccc(-c2nc3cccc(C)n3c2NCc2ccco2)cc1OC,-32,4,-1,1%,-1.1,
Cc1cccc(C)c1OCC(=O)NCC1CCCO1 (stereo unspecified),.,1,-1,-1%,2.7,
O=C(O/N=C1/CCCc2occc21)c1ccccc1,1,7,-7,32%,-3.7,
COc1ccc(NCc2nc3ccccc3n2CCOc2ccccc2)cc1,-10,10,-8,77%,12,
CC1(C)C2C(Cl)(Cl)C2(C)c2ccccc2N1C=O (stereo unspecified),.,-7,.,5%,-4.8,
COc1cc(/C=N\NC(=O)OC(C)(C)C)ccc1OC(=O)c1ccco1,.,2,-12,-2%,9.3,
COc1cccc(OCC(=O)NNC(=O)c2cccs2)c1,-19,-5,-4,-2%,-2.8,
COc1cccc(-c2cc(-c3cccnc3)c(C#N)c(N)n2)c1,.,0,.,-8%,2.6,
COc1cc(C(=O)Nc2ccc3c(c2)OCCO3)c(-n2cnnn2)cc1OC,-3,3,1,0%,1.9,
CCOC(=O)CSc1nnc(CNC(=O)c2ccc(S(=O)(=O)N3CCCC3)cc2)n1C,6,-8,4,.,2.0,
CC(=O)c1ccc(S(=O)(=O)N2CCN(C(=O)CSc3ccc(F)cc3)CC2)cc1,.,1,.,.,3.3,
COc1cccc(NC(=O)CSc2nnc3c(n2)[nH]c2ccc(C)cc23)c1,.,5,.,.,1.3,
O=c1cc(-c2ccccc2)nc(Cc2c(Cl)cccc2Cl)[nH]1,.,1,.,.,-1.7,
CC(C)NCc1c(O)c(Br)cc2oc3c(c12)CCCC3,-17,.,16,-5%,.,
CCCCc1ccc(/C=C2\C(=O)c3ccccc3C(O)=C2C(=O)OCC)cc1,-5,6,-40,9%,35*,
COC(=O)Nc1nnc(-c2ccncc2)s1,-29,-3,0,-7%,-2.7,
Cc1cc(NCCCn2ccnc2)n2ncc(-c3ccc(Cl)cc3)c2n1,10,100,-32,?,8.4,
Cc1cccc(NC(=O)CSc2nnc(NC(=O)CN3CCOCC3)s2)c1,-6,2,5,-6%,-2.1,
Cc1ccc(/C=C/C(=O)Nc2cccc(S(=O)(=O)N3CCOCC3)c2)o1,-3,?,13,9%,1.6,
C=CCOc1nc2c(c(=O)n(Cc3ccc(Cl)c(Cl)c3)c(=O)n2C)n1C,-13,-13,.,9%,-0.2,
O=C(Nc1cccc(-c2nc3cccnc3s2)c1)c1ccco1,-20,62,7,-3%,0.4,
CCOC(=O)Cc1csc(NC(=O)CC(C)(C)CC(=O)O)n1,.,-8,.,7%,1.0,
Cc1ccc(C)c(NC(=S)N2CCN(S(C)(=O)=O)CC2)c1,.,0,.,.,-1.7,
CCOc1ccc(CNC(=O)CCCn2ccc3cc(S(=O)(=O)N4CCCC4)ccc32)cc1,.,2,.,.,2.0,
CSc1nc(C)cc(C)c1C#N,-22,-2,8,-4%,0.7,

# These rows are one share of the data. The share of hits here may be higher or lower than overall.
